Mtb H37Rv – Mycobacterium tuberculosis H37Rv growth inhibition, cell based, confirmatory dose response (AID 1949). most inactive calls were filed without a number and no value below 0 was filed. inhibition, % at 10 µg/mL, or IC50 in µg/mL where a hit was titrated. actives 1.6% (n = 100,000);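 active = confirmed in a dose series; inconclusive = about 50% or more but not retested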;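 also: bacteria grown 7 days with compound before Alamar blue readout; 0% = untreated bacteria and 100% = reference antibiotic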
Numbers without * were called inactive; i = inactive; ? = inconclusive.

SMILES	Mtb H37Rv
Cc1cc(S(=O)(=O)NCc2ccccc2)ccc1OCC(=O)N1CCCCCC1	i
O=C(Nc1cnn(C23CC4CC(CC(C4)C2)C3)c1)c1cnn2cccnc12	19%
O=C(Nc1ccccc1C(=O)Nc1ccccc1F)c1ccco1	4%
Cc1[nH]c(=O)[nH]c(=O)c1NC(=O)c1ccco1	i
O=C(CSc1nnc(-c2ccncc2)n1-c1ccc(Cl)cc1)N1CCCC1	i
Oc1ccc(CCNC(=S)Nc2ccc(Cl)cc2Cl)cc1O	i
Cc1cc2nc(-c3cccc(NC(=O)c4cc(Br)ccc4Cl)c3C)oc2cc1C	i
CCC(Sc1nc2ccccc2s1)C(=O)Nc1nc(-c2ccccc2)cs1 (stereo not drawn)	i
Cc1ccc2nc(N3C(=O)CNC3=S)sc2c1	?
CS(=O)(=O)N1CCN(C(=S)NCc2ccco2)CC1	i
O=C(NCC1CCCO1)c1cc2ncc(Br)cn2n1 (stereo not drawn)	i
COc1ccccc1OCc1ccc(C(=O)Nc2ccccc2Cl)o1	i
COc1cc(S(=O)(=O)Nc2ccc(C)cc2)ccc1NC(=O)c1ccc(C)cc1	6%
CC1CN(CCCCOc2ccc(I)cc2)CC(C)O1 (stereo not drawn)	6%
CCc1ccccc1OCC(=O)Nc1cccc(C(C)=O)c1	2%
CC(=O)c1c(C)n(CC(=O)NC2CCCC2)c2ccccc12	i
O=C(Nc1cccc(C(=O)N2CCN(Cc3ccc4c(c3)OCO4)CC2)c1)c1ccccc1	i
COc1ccc(OC)c(NC(=O)Cc2cccc3ccccc23)c1	10%
Cc1ccc(C)c(NC(=O)c2ccc(-c3ccccc3Cl)o2)c1	13µg/mL*
CC1(C)CC(NS(=O)(=O)c2cc(Cl)ccc2Cl)CC(C)(C)N1	i
COc1ccc(Cl)cc1NC(=O)c1ccc(Br)o1	i
Cc1nn(C(=O)c2cccs2)c(C)c1Br	i
COc1ccc2oc(=O)c(-c3nnc(NCc4ccccc4)s3)cc2c1	i
CCCCN1C(=O)NC(C(F)(F)F)(C(F)(F)F)C2=C1CC(C)(C)CC2=O	1%
CCCN(CCC)S(=O)(=O)c1ccc(NS(=O)(=O)c2ccc(Br)cc2)cc1	i
CC(C)(C)NC(=O)c1ccc(C(=O)NC(C)(C)C)cc1	i
CC1(C(=O)Nc2nccs2)Cc2ccccc2C(=O)O1 (stereo not drawn)	i
Cc1ccc(-n2c(C)nnc2SCC(=O)N2C(C)CCCC2C)cc1C (stereo not drawn)	i
CCN(CC)c1ccc(NC(=O)C2CC2c2ccccc2)cc1 (stereo not drawn)	50%
CCOC(=O)N1CCN(c2nc(-c3cccs3)cc(C(F)(F)F)n2)CC1	i
COC(=O)c1noc(-c2ccccc2)n1	i
Cc1ccc(-c2ccc(OCC(=O)Nc3ccc(S(N)(=O)=O)cc3)cc2)cc1	1%
N#Cc1ccccc1S(=O)(=O)Nc1cc(C(F)(F)F)ccc1Cl	i
COc1cc(C(=O)NCc2cccs2)cc(OC)c1OC	i
CC(C)N1CCN(C(=O)COc2ccccc2)CC1	i
Brc1cccc(OCCN2CCCCC2)c1	i
COc1cccc(C(=O)N2CCN(CC3CC=CCC3)CC2)c1OC (stereo not drawn)	i
O=C(c1ccncc1)N1CCC(Cc2ccccc2)CC1	i
CN(C)CCCNC(=S)NC1CCCC1	i
O=C(CCc1ccccc1)Nc1ccc(S(=O)(=O)N2CCCC2)cc1	i
O=S(=O)(CC(CN1CCCC1)N1CCCC1)c1ccc2ccccc2c1 (stereo not drawn)	i
CC(=O)c1ccc(NC(=O)CSc2nc(C)cc(C)c2C(N)=O)cc1	i
COc1ccc(S(=O)(=O)N(C)CC(=O)N2CCN(c3ccccc3)CC2)cc1	i
O=C(Nc1ccc(Cl)cc1Cl)C1CCN(S(=O)(=O)c2ccc(F)cc2)CC1	1%
CCOc1ccc(C(=O)Nc2cc(NC(=O)c3ccc(OCC)cc3)cc(C(=O)O)c2)cc1	21%
O=C(c1ccco1)N(Cc1ccccc1)Cc1ccccc1	2%
CCOC(=O)c1ccc(NC(=O)COc2cccc(C(=O)OC)c2)cc1	34%
CCOC(=O)c1c[nH]c2ccc(Br)cc2c1=O	i
COc1ccc(C(=O)O)cc1NC(=S)NC(=O)c1cc2ccccc2o1	i
Cc1ccc(C)c(OCC(=O)Nc2ccc(Br)cc2)c1C	35%
CC12CCC(C(=O)N3CCN(c4ncccn4)CC3)(c3nc4ccccc4nc31)C2(C)C (stereo not drawn)	i
CC(=O)c1ccc(N2Cc3ccccc3C2)cc1	i
Cc1cccc(C(=O)Nc2nnc(SCC(=O)Nc3cccc(C(F)(F)F)c3)s2)c1	3%
COc1ccc(CNC(=S)Nc2cccc(C(C)=O)c2)cc1OC	i
O=C(CC1Sc2ccc(C(F)(F)F)cc2NC1=O)Nc1cc(Cl)ccc1Cl (stereo not drawn)	i
Cc1cc(C)cc(NC(=O)C2CCN(S(=O)(=O)c3ccc(Br)cc3)CC2)c1	i
S=C(NCc1ccco1)Nc1ccccc1-c1ccccc1	i
Cc1cc(OCC(=O)N(C(C)C)C(C)C)cc(C)c1Br	i
Nc1cc(=O)[nH]c(=S)n1-c1ccc(F)cc1	i
C=CCc1cccc2cc(NC(C)=O)c(=O)oc12	i

Following part:
SMILES	Mtb H37Rv
Cc1ccc(-c2nc3ccccc3s2)cc1NC(=O)c1ccc(-c2cccc([N+](=O)[O-])c2)o1	i
CCOC(=O)c1ccc(NC(=O)CNS(=O)(=O)c2c(C)cc(C)cc2C)cc1	i
Cc1cc(/C=C(\C#N)C(N)=S)c(C)c(Cn2ccc(C(F)(F)F)n2)c1	i
CCc1ccc(OCCCC(=O)Nc2nc3ccc(S(C)(=O)=O)cc3s2)cc1	i
COc1ccccc1-c1coc2cc(OC(=O)c3cncc(Br)c3)ccc2c1=O	i
O=c1c(-c2ccccc2Cl)coc2cc(O)ccc12	i
COc1ccc(C(=O)NC(=S)Nc2ccc(N(C)C(C)=O)cc2)cc1I	46%
Cc1ccc(NC(=O)c2ccc(CN(c3ccc(C)c(C)c3)S(C)(=O)=O)cc2)cc1	i
COc1cc(C)c(Cl)cc1S(=O)(=O)NCc1ccccn1	i
CCOc1cccc(OCCn2cnc3ccccc3c2=O)c1	i
O=C(NC1C2CC3CC(C2)CC1C3)c1cccc(Cl)c1 (stereo not drawn)	i
FC(F)(F)c1cc(-c2ccccc2)n2c(n1)nc1ccccc12	3%
Cc1nn(-c2ccccc2)c2sc(C(=O)NC(=S)NCC3CCCO3)cc12 (stereo not drawn)	i
CCOC(=O)C(CCOCCOc1cccc(OCC)c1)C(=O)OCC	i
CC(=O)Oc1ccc(N(C(C)=O)S(=O)(=O)c2ccc(C)cc2)cc1	20%
O=C(CSc1nc(N2CCOCC2)nc(N2CCOCC2)n1)NC1CCCCC1	i
COc1ccc(NC(=O)CSc2nnc(-c3cccs3)n2-c2ccc(F)cc2)cc1	0%
CCS(=O)(=O)c1nc2ccccc2n1CCOc1ccccc1	1%
COc1cccc(NC(=O)c2c(NC(=O)CCc3ccccc3)sc3c2CCC3)c1	i
CCCCN(C)S(=O)(=O)c1ccc(C(=O)Nc2ccc3c(c2)OCCO3)cc1	5%
CCN1CCN(C(=O)CN(c2cccc(Cl)c2)S(=O)(=O)c2ccc(OC)cc2)CC1	i
COc1cc(NC(=O)c2ccccc2OCc2ccccc2)cc(OC)c1OC	i
O=C(O)CCc1ccc(-c2cccs2)n1NC(=O)c1ccco1	i
CC1=C(C)N(c2ccccc2)NC(=S)S1	6%
Cc1c(-c2ccccc2)nc2ccccc2c1C(=O)NC1CCCCC1	i
CCc1cccc(CC)c1NC(=O)c1ccccc1N(Cc1ccccc1)S(=O)(=O)c1ccc(OC)cc1	9%
OCc1cn(Cc2ccc(Cl)c(Cl)c2)c2ccccc12	6%
CC(C)(C)NS(=O)(=O)c1ccc(NS(=O)(=O)c2ccccc2)cc1	i
O=C(O)CN(CC(=O)O)C(=O)OCc1ccc([N+](=O)[O-])cc1	i
CCOC(=O)c1c(NC(=O)CSc2nc3c(cc2C#N)CCCC3)sc2c1CCCC2	i

Brought forward from above: six entries; new compounds follow.
SMILES	Mtb H37Rv
Cc1c(-c2ccccc2)nc2ccccc2c1C(=O)NC1CCCCC1	i
CCc1cccc(CC)c1NC(=O)c1ccccc1N(Cc1ccccc1)S(=O)(=O)c1ccc(OC)cc1	9%
OCc1cn(Cc2ccc(Cl)c(Cl)c2)c2ccccc12	6%
CC(C)(C)NS(=O)(=O)c1ccc(NS(=O)(=O)c2ccccc2)cc1	i
O=C(O)CN(CC(=O)O)C(=O)OCc1ccc([N+](=O)[O-])cc1	i
CCOC(=O)c1c(NC(=O)CSc2nc3c(cc2C#N)CCCC3)sc2c1CCCC2	i
CCOc1ccccc1NC(=O)c1c(NC(=O)CN2CCOCC2)sc2c1CCC2	i
O=C(Nc1ccc(F)cc1)c1cn(-c2ccccc2)nc1-c1ccc(Cl)s1	i
COC(=O)C1C(=O)N(c2ccc(C)cc2)C(c2ccccc2)=NC1=S (stereo not drawn)	1%
O=C(CC1SC2=NCCN2C1=O)Nc1ccc(Br)cc1 (stereo not drawn)	3%
O=C(N/N=C/c1ccccn1)c1cc(-c2ccc3ccccc3c2)n[nH]1	?
COc1ccc(CCNC(=O)C(=O)Nc2ccc([N+](=O)[O-])cc2)cc1	i
Cc1ccc(S(=O)(=O)n2cnc3cc([N+](=O)[O-])ccc32)c(C)c1C	i
COc1ccc(NC(=O)C2=C(C)Nc3ncnn3C2c2ccccc2[N+](=O)[O-])cc1 (stereo not drawn)	i
COc1ccc(S(=O)(=O)N2CCCC2)c([N+](=O)[O-])c1	i
Cc1ccc(C(=O)N(C(=O)c2ccc(C)cc2Cl)c2ncccc2C)c(Cl)c1	2%
COC(=O)c1sc(NC(=O)c2c(F)c(F)c(F)c(F)c2F)c(C(N)=O)c1C	<0.1µg/mL*
CCOc1ccc(S(=O)(=O)N(CC(=O)Nc2ccc3ccccc3c2)c2ccccc2)cc1	i
Cc1ccc(-c2noc(CN3CCN(Cc4ccccc4)CC3)n2)cc1	i
O=C(NC(=S)Nc1ccc(N2CCOCC2)c(Cl)c1)c1ccccc1Cl	i
O=C(Cc1c(F)cccc1Cl)Nc1ccc(S(=O)(=O)N2CCCC2)cc1	i

Fetched by structure from the list above, 12 records:
SMILES	Mtb H37Rv
COC(=O)C1C(=O)N(c2ccc(C)cc2)C(c2ccccc2)=NC1=S (stereo not drawn)	1%
CCOc1ccc(S(=O)(=O)N(CC(=O)Nc2ccc3ccccc3c2)c2ccccc2)cc1	i
COc1ccc(S(=O)(=O)N2CCCC2)c([N+](=O)[O-])c1	i
O=C(Cc1c(F)cccc1Cl)Nc1ccc(S(=O)(=O)N2CCCC2)cc1	i
O=C(NC(=S)Nc1ccc(N2CCOCC2)c(Cl)c1)c1ccccc1Cl	i
CCOc1ccccc1NC(=O)c1c(NC(=O)CN2CCOCC2)sc2c1CCC2	i
COC(=O)c1sc(NC(=O)c2c(F)c(F)c(F)c(F)c2F)c(C(N)=O)c1C	<0.1µg/mL*
Cc1ccc(C(=O)N(C(=O)c2ccc(C)cc2Cl)c2ncccc2C)c(Cl)c1	2%
COc1ccc(CCNC(=O)C(=O)Nc2ccc([N+](=O)[O-])cc2)cc1	i
Cc1ccc(-c2noc(CN3CCN(Cc4ccccc4)CC3)n2)cc1	i
O=C(CC1SC2=NCCN2C1=O)Nc1ccc(Br)cc1 (stereo not drawn)	3%
O=C(Nc1ccc(F)cc1)c1cn(-c2ccccc2)nc1-c1ccc(Cl)s1	i

Next structures follow.
SMILES	Mtb H37Rv
CC(C)c1ccc(NC(=O)CSC2CCCC2)cc1	20%
Cn1c(=O)[nH]c(=O)c2c1ncn2CCNCc1ccco1	i
Cc1cccc(NC(=S)NC2CCCC2)c1C	i
Cc1cc(C)n(S(=O)(=O)c2ccc(Cl)c(C)c2Cl)n1	i
OCCNc1nc(Nc2ccc(Cl)cc2)nc2ccccc12	?
Cc1cc(S(=O)(=O)NCCCN2CCOCC2)c(C)cc1Br	0%
Cc1ccc(C)c(OCCCCNCCO)c1C	i
COc1ccc(NCc2ccc(OC)c(OC)c2OC)cc1Cl	46%
CN(c1ccccc1C(=O)Nc1ccccc1Cl)S(C)(=O)=O	i
Cc1c(C(=O)N2CC(C)OC(C)C2)oc2ccccc12 (stereo not drawn)	9%
CC(C)CNS(=O)(=O)c1ccc(CCC(=O)NCc2cccnc2)cc1	i
COc1cc(Br)ccc1OCC(=O)N=Nc1c(O)n(C)c2ccccc12	i
CC(NC(=O)C1C2C=CC(C2)C1C(=O)O)C12CC3CC(CC(C3)C1)C2 (stereo not drawn)	6%
COC(=O)c1ccc(NC(=O)CSc2nncc3ccccc23)cc1	i
CN1CCC(NC(=S)Nc2cccc(F)c2)CC1	i
COc1cc(C=O)ccc1OC(=O)c1cc(OC)c(OC)c(OC)c1	i
CCOc1cc(CNc2ccc(CNc3ncn[nH]3)cc2)ccc1OCc1ccccc1	10%
Cc1[nH]c2ccccc2c1C1(O)C(=O)N(C(C)C)c2ccccc21 (stereo not drawn)	i
CN1CCN(c2ccc(/C=C(/C#N)c3nc4ccccc4[nH]3)o2)CC1	22%
CCN1CCN(C(=O)c2ccc(CSc3ccc(C)cc3)cc2)CC1	0%
Cc1ccc(CN(CC(=O)N2CCCC2)S(=O)(=O)c2c(C)cc(C)cc2C)cc1	i
CCOc1ccc(NC(=O)COc2c(C)cccc2C)cc1	i
COCCCNC(=S)N1CCCCCC1	i
CCc1ccccc1OCC(=O)Nc1nccs1	i
CCc1ccccc1N1CCN(S(=O)(=O)c2cc(C(C)C)ccc2OC)CC1	i
CSc1ccccc1C(=O)NC1CCCCC1	i
O=C(Nc1cccc(F)c1)N1CCN(c2ccc(F)cc2)CC1	i
CCC(CC)C(=O)Nc1ccc(S(=O)(=O)N2CCC(C)CC2)cc1	i
O=C(CSc1nnc(Cc2ccccc2)n1-c1ccccc1)Nc1ccccc1-c1ccccc1	5%
COc1ccccc1C1=NOC(Cn2c(NCc3ccccc3)nc3c2c(=O)n(C)c(=O)n3C)C1 (stereo not drawn)	i
Cc1nc2cc(NCc3cccc([N+](=O)[O-])c3)ccc2n1Cc1ccccc1	5.8µg/mL*
COCCNC(=S)NNC(=O)C(C)Oc1ccc(F)cc1F (stereo not drawn)	4%
CCSc1ccccc1C(=O)N1CCCCC1	7%
COC(=O)Cc1c(C)c2c(OCC(N)=O)cc(C)cc2oc1=O	i
O=C(NCc1cccs1)c1ccccc1C(=O)NCc1cccs1	i
Cc1cc(C)nc(NS(=O)(=O)c2ccc(NC(=O)C3c4ccccc4Oc4ccccc43)cc2)n1	i

An excerpt (hit frequency here may not be typical).
